Screens (PubChem)
Kir21 block – blocks the mouse Kir2.1 inward-rectifier potassium channel | HEK293-Kir2.1, FluxOR thallium flux fluorescence; active compounds read low | B-score at 10 µM | 0.85% of 310,000 active | AID 1672 | P35561;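 active = fluorescence ratio B-score at or below minus 3 SD of library scores, with starting-brightness B-score within 2 SD, cut at about -4.2 in these data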;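 note: channel flux triggered by added potassium and thallium sulfate stimulus; B-score of peak minus minimum fluorescence over baseline after thallium stimulus; more negative B-score means stronger Kir2.1 block with less thallium influx; some compounds called inactive have numbers as strong as hits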
Target sequence (P35561 whole entry, looked up): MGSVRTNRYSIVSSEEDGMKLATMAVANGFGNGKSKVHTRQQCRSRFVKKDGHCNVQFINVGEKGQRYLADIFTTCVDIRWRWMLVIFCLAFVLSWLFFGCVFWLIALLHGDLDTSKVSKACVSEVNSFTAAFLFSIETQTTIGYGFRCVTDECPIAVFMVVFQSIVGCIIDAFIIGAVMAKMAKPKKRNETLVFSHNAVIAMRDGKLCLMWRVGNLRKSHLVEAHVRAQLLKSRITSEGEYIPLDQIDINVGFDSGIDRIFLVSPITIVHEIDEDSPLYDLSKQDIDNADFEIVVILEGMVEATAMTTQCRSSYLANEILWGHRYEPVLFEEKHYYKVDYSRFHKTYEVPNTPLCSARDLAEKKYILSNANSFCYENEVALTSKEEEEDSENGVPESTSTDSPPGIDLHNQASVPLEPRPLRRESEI
Numbers without * were called inactive.

SMILES	Kir21 block
CN(C(=O)COC(=O)c1cc(=O)[nH]c2ccccc12)c1c(N)n(Cc2ccccc2)c(=O)[nH]c1=O	0.69
COc1ccc(-c2nn3c(-c4ccccn4)nnc3s2)cc1OC	1.2
O=C(C1CCCN(Cc2nc(-c3ccc(Cl)cc3)no2)C1)N1CCOCC1 (stereo unspecified)	0.44
COC(=O)c1ccccc1NC(=O)N1CCN(C/C=C/c2ccccc2)CC1	-1.8
O=C(NCCCN1CCOCC1)c1ccc(Br)cc1	0.18
CCC(=S)/C=C1\Sc2ccc3ccccc3c2N1CCCS(=O)(=O)O	-0.41
CC(C)NC(=O)c1ccccc1NC(=O)/C=C/c1cccc([N+](=O)[O-])c1	-0.07
CCCc1cc(=O)[nH]c(SCCOc2ccc(OCC)cc2)n1	0.08
O=C(NCc1ccccc1Cl)C(=O)NCC(c1ccco1)N1CCOCC1 (stereo unspecified)	0.92
CCCC(=O)Oc1ccc(-c2nccc(C(OC)OC)n2)cc1	-0.05
O=C(Cn1c(=S)nc2ccccn21)N1CCc2ccccc2C1	0.64
COc1ccc(C2/C(=C(/O)c3ccc(Br)cc3)C(=O)C(=O)N2C)cc1 (stereo unspecified)	0.63
COC(=O)c1ccc(CSc2nc(N)cc(N)n2)cc1	2.48
CC(C)(C)c1ccc(C(=O)N2CCC(=O)N(C(CO)Cc3ccccc3)CC2)cc1 (stereo unspecified)	-1.34
COCCN(C(=S)Nc1cccc(OC)c1)C1CCN(C(C)C)CC1	1.11
CC(=O)N1C(O)CC(C)N1c1ccccc1 (stereo unspecified)	0.69
C=CCNC(=O)CN(c1ccccc1OCC)S(=O)(=O)c1ccc(C)cc1	-0.6
CCOC(=O)C=Nc1c(N)n(C)c(=O)n(C)c1=O	0.02
CC(C)(c1ccc(O)cc1)c1ccc(O)cc1	-0.11
Cn1cnnc1Sc1nc2c(c(=O)n(C)c(=O)n2C)n1C	0.19

2 entries picked at random from those above:
SMILES	Kir21 block
CC(C)(c1ccc(O)cc1)c1ccc(O)cc1	-0.11
COC(=O)c1ccc(CSc2nc(N)cc(N)n2)cc1	2.48

(next part)
SMILES	Kir21 block
O=C(Nc1cccnc1Cl)c1ccc(=O)oc1	0.01
CCOc1ccc(NC(=O)CC)cc1	0
NC1=NC(c2ccccc2C(F)(F)F)N(c2ccc(F)c(Cl)c2)C(N)=N1 (stereo unspecified)	0.01
O=C(N/N=C/c1ccc(OC(=O)c2ccco2)cc1)c1ccccn1	-0.17
O=C(O)C1C2C=CC(C2)C1C(=O)OC1CC2CCC1C2 (stereo unspecified)	-1.4
O=C1CC(Cc2ccc(Cl)cc2)C(=O)N1c1ccncc1 (stereo unspecified)	0.19
O=C(Nc1ccc(N2CCCC2=O)cc1)c1cccc(F)c1	0.77
N#Cc1cccc(C#N)c1Oc1ccc(S(=O)(=O)Nc2ccccc2)cc1	-0.42
O=C(CN1C(=O)c2ccccc2S1(=O)=O)N1CCN(Cc2ccc3c(c2)OCO3)CC1	1.22
O=C(Nc1cccnc1)c1cc(-c2cccs2)on1	0.27
CCC(C)[C@H]1CN=C(N)N1CCCc1cc(OC)c(OC)c(OC)c1 (stereo partly specified)	0.95
COc1ccc(CNC(=O)CS(=O)CC(=O)O)cc1OC (stereo unspecified)	2.1
O=C(COC(=O)c1c2c(nc3ccccc13)/C(=C\c1cccs1)CCC2)Nc1ccccc1	-0.05
CCOC(=O)CSc1nnc(-c2cccnc2)n1C	0
Cn1c(=O)c2c(nc(NCc3ccccc3)n2CC(N)=O)n(C)c1=O	-1.2
CCC(C)[C@H](NC(=O)[C@@H]1Cc2ccccc2CN1)C(=O)Nc1ccc2c(c1)OCO2 (stereo partly specified)	-1.45
Cc1ccc(SCC(=O)NC2CCCCCC2)cc1	0.43
CSc1ncccc1C(=O)N(C)CC(=O)Nc1ccc(Cl)c(C(F)(F)F)c1	1.62
O=C(O)c1cccc(NC(=S)NC(=O)c2cccc(OCc3ccccc3)c2)c1	1.79
O=C(CCSCCc1ccccn1)Nc1ccccn1	-0.79

Some of these compounds in order of the Kir21 block value, descending:
molecule	Kir21 block
O=C(Cn1c(=S)nc2ccccn21)N1CCc2ccccc2C1	0.64
CCOC(=O)CSc1nnc(-c2cccnc2)n1C	0
O=C(COC(=O)c1c2c(nc3ccccc13)/C(=C\c1cccs1)CCC2)Nc1ccccc1	-0.05
O=C(N/N=C/c1ccc(OC(=O)c2ccco2)cc1)c1ccccn1	-0.17

(listing goes on)
SMILES	Kir21 block
O=C(COc1cccc2cccnc12)Nc1ccccc1	-0.92
COC(=O)[C@@H](NC(=O)c1ccc(OC2CCN(Cc3ccccn3)CC2)cc1)C(C)C	-1.63
Nn1c(SCC(=O)Nc2ccc(S(N)(=O)=O)cc2)nnc1-c1ccco1	0.91
CC(C)C(=O)N1CCN(c2ccccc2NC(=S)NC(=O)c2cccs2)CC1	-0.98
CCOc1ccc(C(C)C)cc1S(=O)(=O)N1CCN(C(=O)c2ccco2)CC1	-1.29
COc1ccc(CSc2nnnn2C)cc1F	-0.16
CCN(C(=O)COc1cc(=O)n(CC)c2ccccc12)c1cc(Cl)ccc1OC	-1.61
O=C(Cn1nnc(-c2ccccc2)n1)NCc1ccco1	2.05
Cc1ccc(NC(=O)CNC(c2ccccc2)c2ccccc2)c(F)c1	0.19
CN1C(=O)CC(N2CCC(c3nc4ccccc4s3)CC2)C1=O (stereo unspecified)	1.08
S=c1[nH]cc(-c2ccccc2)n1-c1ccccc1Cl	-0.51
O=C(Nc1ccc(Br)cc1)c1csc(-c2ccncc2)n1	1.18
COc1ccc(NC2CC(=O)N(c3cc([N+](=O)[O-])ccc3C)C2=O)cc1 (stereo unspecified)	0.67
CN(C)C(=S)c1ccc2ccccc2n1	0.6
Cc1cc(=O)oc2cc(OCC(=O)NCCCN3CCOCC3)ccc12	-0.83
CCn1c(CC(=O)Nc2ccc(F)cc2)nnc1SCC(=O)NC1CCCC1	-1.5
O=C(O)CCSC1CC(=O)N(c2ccccc2)C1=O (stereo unspecified)	-1.39
Cc1ccccc1CSCC(=O)NC(=O)NCc1ccco1	2.05
O=C(CSc1nnc2c(n1)[nH]c1ccc(S(=O)(=O)N3CCOCC3)cc12)Nc1ccc(F)c(F)c1	0.44
CCOC(=O)C1(Cc2ccccc2)CCCN(Cc2ccncc2)C1 (stereo unspecified)	-0.59
CN(C(=O)c1ccccn1)c1nnc(-c2cnccn2)s1	-1.36
Cc1ccc(C(=O)OCC(=O)NC(=O)c2cccn2C)cc1[N+](=O)[O-]	0.67
N#Cc1ccccc1/C=C/C(=O)N1CCOCC1	1.95
Cc1ccc(N(CC(=O)NCC2CCCO2)S(C)(=O)=O)cc1Cl (stereo unspecified)	-0.91
CC1(C)Cc2nc(N)c(C(=O)NCCO)cc2CO1	0.72
CC1CN(C(=O)c2cc3ccccc3oc2=O)CC(C)O1 (stereo unspecified)	-0.69
O=C(Nc1ccc(F)cc1)c1oc2ccccc2c1NC(=O)C1CCCC1	1.01
Cc1noc(C)c1S(=O)(=O)N1CCC(C(=O)N2CCN(C(=O)c3ccco3)CC2)CC1	1.94
Cc1ccccc1NC(=S)N1CCN(Cc2ccccc2)CC1	2.13
NS(=O)(=O)c1cccc(NC(=O)COC(=O)COc2ccc3ccccc3c2)c1	-0.06
CC1CC(C)CN(C(=O)c2ccc(-c3ccc([N+](=O)[O-])cc3)o2)C1 (stereo unspecified)	-0.58
CC(C)c1nc(C#N)c(NCCCn2ccnc2)o1	-1.21
COCCC1CCCCN1C(=O)c1cc(COc2ccc(C)nc2)on1 (stereo unspecified)	0.2
O=C(c1cccs1)N1CCN(c2nc3ccc([N+](=O)[O-])cc3s2)CC1	0.27
N/C(=N\OC(=O)c1ccco1)c1cccnc1	0.2
COc1ccc(CN2CCN(S(=O)(=O)c3ccc(C)cc3)CC2)cc1OC	1.09
CCC(NC(=O)Cc1c(C)c2ccc(OC)c(C)c2oc1=O)C(=O)NC(Cc1ccc(Cl)cc1)C(=O)O (stereo unspecified)	-0.08
Cc1cc(-c2ccc(S(=O)(=O)N3CCN(c4ccccc4F)CC3)s2)on1	0.17
O=S(=O)(NC1CCCCC1N1CCN(c2ccccc2F)CC1)c1ccccc1 (stereo unspecified)	1.17
Cc1ccccc1NC(=O)C1(C)Cc2ccccc2C(=O)O1 (stereo unspecified)	-2.15
COc1ccccc1OC(=O)CN1C(=O)c2ccccc2C1=O	1.99
CN1CCN(S(=O)(=O)c2cccc([N+](=O)[O-])c2)CC1	-1.63
COc1ccccc1/C=C/C(=O)NCC(=O)N/N=C/c1ccc2c(c1)OCO2	1.35
N#CCCN1CCN(S(=O)(=O)c2ccc(S(=O)(=O)NCC3CCCO3)cc2)CC1 (stereo unspecified)	-0.63
CCOCCCNC(=O)C1CCC(=O)N1CCc1ccccc1 (stereo unspecified)	0.72
COc1ccc(/C=N/Nc2nc3ccccc3o2)cc1O	0.39
Cc1cccc(Nc2nnc(SCC(=O)N(C)C3CCS(=O)(=O)C3)s2)c1C (stereo unspecified)	0.3
CN1C(=S)SC(C)(C)C1N(O)C(=O)Nc1ccc(Cl)cc1 (stereo unspecified)	0.96
COc1ccc(N2CCN(C3CCCN(C(=O)CSC)C3)CC2)cc1 (stereo unspecified)	0.39
O=C(O)c1cc(S(=O)(=O)NC2CCCc3ccccc32)ccc1O (stereo unspecified)	0.44

An excerpt from above in order of molecular weight, ascending:
SMILES	Kir21 block
CCC(C)[C@H]1CN=C(N)N1CCCc1cc(OC)c(OC)c(OC)c1 (stereo partly specified)	0.95
COC(=O)c1ccccc1NC(=O)N1CCN(C/C=C/c2ccccc2)CC1	-1.8
Cc1noc(C)c1S(=O)(=O)N1CCC(C(=O)N2CCN(C(=O)c3ccco3)CC2)CC1	1.94
O=C(COC(=O)c1c2c(nc3ccccc13)/C(=C\c1cccs1)CCC2)Nc1ccccc1	-0.05

Carrying on:
SMILES	Kir21 block
CCc1ccc(S(=O)(=O)NCC(O)COc2ccc(OC)cc2)cc1 (stereo unspecified)	-1.88
O=C(CSc1nc2ccccc2o1)NCC1CCCO1 (stereo unspecified)	1.26
CCN(CC)CCCN(Cc1cc2cc(OC)ccc2[nH]c1=O)C(=O)Nc1ccccc1	0.55
CCN1CCN(S(=O)(=O)c2ccc(Cl)c(C(=O)NC3CCCC3)c2)CC1	0.09
C=CCn1c(SCC(=O)N(C)C)nc2sc3c(c2c1=O)CCC3	-0.93
CCOc1ccc(N(CC(N)=O)S(=O)(=O)c2ccc(F)cc2)cc1	-0.26
Cn1c(=O)c2sccc2n2c(CCCC(=O)NCCc3ccc(S(N)(=O)=O)cc3)nnc12	0.79
CCCCOC(=O)Sc1nc2ccccc2o1	0.03
COc1ccc(/C=C/c2c(-c3ccc(OC)cc3)sc3ccc(N4CCOCC4)cc23)cc1	-0.48
COc1cc(OC)c(OC)cc1/C=N/NC(=O)c1cccc(S(=O)(=O)N2CCOCC2)c1	1.11
C/C(=N\NS(=O)(=O)c1ccc(C)c([N+](=O)[O-])c1)c1cc2ccccc2o1	-0.16
COc1cc(C2C(=O)c3ccccc3C2=O)ccc1O	0.65
Cc1ccc(-c2cc(C(=O)NCc3cnn(C)c3)c3cc(Br)ccc3n2)cc1	-0.44
Cc1cc(OCC[N+]2(C)CCCCC2)nc2ccccc12	-0.83
CN(C)c1ccc(C(CNS(=O)(=O)c2ccc([N+](=O)[O-])cc2)N2CCCC2)cc1 (stereo unspecified)	-3.3
CCC(=O)Nc1nc(-c2ccccc2)nc(SC)c1C(C)=O	-0.45
CS(=O)(=O)NN1C(=O)c2ccccc2NC1c1cccs1 (stereo unspecified)	1.11
CCn1c(COc2cccc(C)c2)nnc1SCC(=O)Nc1cccc(C(=O)OC)c1	-0.24
Nc1nc(N)n(-c2ccccc2)c(=Nc2ccccc2)n1	-0.29
O=C(Nc1cccc(S(=O)(=O)Nc2ccc(Cl)cc2)c1)c1cc2c(s1)CCCC2	1.63
COc1ccc(NC(=O)C2(S(=O)(=O)c3ccc(C)cc3)CC2)cc1	-0.57
O=S(=O)(c1ccccc1)N(CC(O)CN1CCCCC1)c1ccccc1 (stereo unspecified)	-4.17
O=C(O)c1ccc(S(=O)(=O)Nc2cccc(CP(=O)(c3ccccc3)c3ccccc3)c2)cc1	0.67
Cc1ccc(CNC(=O)CC(C)S(=O)(=O)c2cc3c(cc2C)NC(=O)CO3)cc1 (stereo unspecified)	0
COc1ccc(-c2csc(N3CCC(c4ccccc4)C3)n2)cc1 (stereo unspecified)	-0.19
O=C(C1CCCN(S(=O)(=O)c2cccnc2)C1)N1CCn2c1nc1ccccc12 (stereo unspecified)	-0.03
O=C(CSc1nnc(-c2ccccc2)o1)n1c2c(c3ccccc31)CCCC2	-0.03
Cc1ccc(C(=O)CSc2nc(-c3ccccc3)cc(=O)[nH]2)cc1	0.7
Cc1ccc(S(=O)(=O)NC2CCCC2)cc1C(N)=O	1.9
CCCCC(=O)Nc1c(-c2ccc(OC)c(OC)c2)c(=O)c2ccccc2n1C	-0.57
CCCCCn1c(CN2CCN(Cc3ccccc3)CC2)nc2c1c(=O)n(C)c(=O)n2C	-2.65
COc1cc(C2SCCS2)cc(Br)c1Oc1ncccc1[N+](=O)[O-]	-1.13
O=C(Nc1ccc(-c2cn3ccsc3n2)cc1)C1CC1	2.25
Cn1c(SCc2nnc(-c3ccccc3Br)o2)nc2sc3c(c2c1=O)CCC3	-0.22
COc1ccc(/C=N/NC(=O)CC(=O)NCc2cccnc2)cc1	-0.49
CSc1nc(=S)n(-c2ccccc2)c(C)c1C(C)=O	1.64
NNC(=O)c1cccc(COCC(F)(F)C(F)F)c1	0.84
CC(C)CC(=O)NC(=S)NNC(=O)c1ccc([N+](=O)[O-])cc1	0.27
CCN(CC(=O)Nc1ccccc1OC)CC(=O)Nc1ccccc1C(F)(F)F	1.29

This is a subset; most or all hits stand in other tables.
